Source: PubChem BioAssay
GIRK2 act – opens human GIRK2 potassium channels. P48051. HEK293-GIRK2 thallium flux, Thallos fluorescence. calls only for hits at 25 µM. hit rate 0.05% among 63,000. AID 1259325;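 active means among the strongest 0.2% of first-round signals and kept after retests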;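 further: first round at about 10 µM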
Target sequence (P48051 whole entry, looked up): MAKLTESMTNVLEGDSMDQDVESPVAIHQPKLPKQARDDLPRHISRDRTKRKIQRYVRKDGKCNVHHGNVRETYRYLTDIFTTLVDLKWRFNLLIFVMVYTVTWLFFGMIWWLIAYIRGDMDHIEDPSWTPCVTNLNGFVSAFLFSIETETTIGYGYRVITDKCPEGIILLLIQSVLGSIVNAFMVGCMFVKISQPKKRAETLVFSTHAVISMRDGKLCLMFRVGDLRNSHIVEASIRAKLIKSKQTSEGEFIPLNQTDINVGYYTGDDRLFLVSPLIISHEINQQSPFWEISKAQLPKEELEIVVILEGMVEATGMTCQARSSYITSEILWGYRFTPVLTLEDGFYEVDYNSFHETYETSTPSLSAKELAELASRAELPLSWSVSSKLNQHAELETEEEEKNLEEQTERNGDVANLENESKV
Calls only; i = inactive. This is a subset (hit frequency here may not be typical).

SMILES	GIRK2 act
O=C(Nc1ccc(S(=O)(=O)Nc2nccs2)cc1)C1(c2cc(-c3ccccc3)on2)CC1	i
O=C(NCCCS(=O)(=O)N1CCN(c2ncccn2)CC1)C12CC3CC(CC(C3)C1)C2	i
CCOc1ccc(-c2nc(SCC(=O)NCCOC)c(-c3ccccc3)[nH]2)cc1	i
COc1ccc(-c2nc(Cn3nnc(C(=O)Nc4cc(OC)cc(OC)c4)c3N)c(C)o2)cc1	i
Clc1ccccc1-n1ncc2c1ncn1nc(-c3cccs3)nc21	i
CC1CCN(c2c([N+](=O)[O-])c(=O)n(C)c3ccccc23)CC1	i
COc1ccc(-c2nc(CCNC(=O)c3ccc(-n4ccnc4C)nn3)cs2)cc1	i
COc1ccc(N/C=C(\C#N)c2nc(-c3ccc(Cl)cc3Cl)cs2)cc1OC	i
COc1cccc(C(=O)N2CCN(c3nnc(SCC(=O)NCc4ccco4)s3)CC2)c1	i
Cc1nnsc1C(=O)NCC1CCN(c2ccccn2)CC1	i
O=S(=O)(Cc1ccccc1Cl)NCCN1CCN(c2ccc(F)cc2)CC1	i
O=C1SC(Nc2ccc(F)c(Cl)c2)C(=O)N1CCN1C(=O)c2ccccc2C1=O (centres undefined)	i
CC(C)NC(=O)CCCCn1c(=O)c2ccccc2n(CC(=O)NCCc2ccccc2)c1=O	i
CCOC(=O)NCC(C)(O)CCSC (centres undefined)	i
O=c1c(-c2ccccc2)coc2c3c(ccc12)OCN(CCCO)C3	i

Reformatted field by field: four of the compounds above.
CC1CCN(c2c([N+](=O)[O-])c(=O)n(C)c3ccccc23)CC1
  GIRK2 act: i
COc1ccc(N/C=C(\C#N)c2nc(-c3ccc(Cl)cc3Cl)cs2)cc1OC
  GIRK2 act: i
O=C(NCCCS(=O)(=O)N1CCN(c2ncccn2)CC1)C12CC3CC(CC(C3)C1)C2
  GIRK2 act: i
O=c1c(-c2ccccc2)coc2c3c(ccc12)OCN(CCCO)C3
  GIRK2 act: i

Returning to the listing with the three entries that preceded the break.
SMILES	GIRK2 act
CC(C)NC(=O)CCCCn1c(=O)c2ccccc2n(CC(=O)NCCc2ccccc2)c1=O	i
CCOC(=O)NCC(C)(O)CCSC (centres undefined)	i
O=c1c(-c2ccccc2)coc2c3c(ccc12)OCN(CCCO)C3	i
Cc1oc(-c2ccccc2)nc1CSc1nc2ccccc2n2c(C(C)C)nnc12	i
CN(C)S(=O)(=O)Nc1cccc(OC(=O)N2CCCCC2)c1	i
Nc1c(-c2nc(-c3ccc4c(c3)OCO4)cs2)nnn1-c1ccc(F)cc1	i
O=C(c1ccc([N+](=O)[O-])o1)N1CCN(Cc2nnnn2-c2ccc(F)cc2)CC1	i
O=C(NCCN1CCN(C(=O)CCCN2C(=O)c3ccccc3C2=O)CC1)c1ccsc1	i
O=C(NCCCn1ncccc1=O)c1ccc(S(=O)(=O)N2CCCC2)cc1	i
COc1cc(S(=O)(=O)NCCC2=CCCCC2)c(OC)cc1Br	i
CCOCCn1c(-n2nc(C)cc2C)nc2c1c(=O)n(C)c(=O)n2C	i
CC(C)n1c(N2CCN(c3ccccc3)CC2)nc2c1c(=O)[nH]c(=O)n2C	i
COc1ccc(/C=C/C(=O)N2CCOC(c3ccccc3)C2)cc1OC (centres undefined)	i
CCOC(=O)Cn1c(=O)c2c(nc3n(-c4ccccc4OC)c(C)c(C)n23)n(C)c1=O	i
O=C(NCCCc1ccccc1)C(=O)Nc1cccnc1	i
CCOC(=O)Cn1c(=O)c2c(nc3n(-c4cccc(C)c4C)c(C)c(C)n23)n(C)c1=O	i
CCOC(=O)CCC(=O)NCC#CCOc1ccc2c(c1)OCO2	i
COc1ccc(Cl)cc1NC(=O)Cn1cnc2c(-c3ccncc3)nsc2c1=O	i

Following part
SMILES	GIRK2 act
Cc1ccc(C(=O)Cn2c(NCCCN3CCOCC3)nc3c2c(=O)[nH]c(=O)n3C)cc1	i
Cc1cc(NC(=O)C(=O)NCCN2CCN(c3ccccc3)CC2)no1	i
O=S(=O)(Nc1ccc(Nc2cc(-n3cccn3)ncn2)cc1)c1cccnc1	i
CCCn1c(C(=O)NC(C)(C)C)cc2c(=O)n(C)c(=O)n(C)c21	i
COC(=O)CSc1nnc(C(C)C)c2cnn(-c3ccccc3OC)c12	i
CCN1CCc2c(sc(NC(=O)CN3C(=O)CCC3=O)c2-c2nc3ccccc3s2)C1	i
Cc1ccc(S(=O)(=O)N(C)c2c(C)ccc(S(=O)(=O)N3CCCC3)c2C)cc1	i
CN1CCN(c2nc3c(c(=O)[nH]c(=O)n3C)n2CCOc2ccccc2)CC1	i
Cc1ccc(N2CCN(CC(=O)Nc3ccccc3-c3ccccc3)C2=O)cc1	i
CC(C)n1nccc1C(=O)N1CCN(c2nc3ccc(OC(F)(F)F)cc3s2)CC1	i
Cc1nnc(NC(=O)CN(C)c2nc3c(C)ccc(C)c3s2)s1	i
CCOc1ccc(-n2c(=S)sc3c(=O)[nH]c(SCC(=O)Nc4ccc(C)c(C)c4)nc32)cc1	i
O=C(NCC(=O)N1CCN(CCn2cccn2)CC1)c1ccccc1	i
COc1ccc(-c2noc(-c3c(SC)nn(CC(=O)NCc4ccccc4)c3N)n2)cc1OC	i
CS(=O)(=O)N1CCC(C(=O)N2CCC(Oc3ccc(C(F)(F)F)cn3)CC2)CC1	i

(further entries)
SMILES	GIRK2 act
COc1ccc(CCC(=O)Nc2cc(-n3nc(C)cc3C)ncn2)cc1	i
COC(=O)CC1=CC(SCC(=O)Nc2ccc(C)cc2Cl)=Nc2ccccc2N1	i
Cc1ccc(N2CCC(C(=O)NCc3ccc(S(N)(=O)=O)cc3)CC2)nn1	i
Cc1ccc(N2CN(CC(=O)NCCc3ccccc3)S(=O)(=O)c3cccnc32)cc1	i
COc1ccc(OC)c2sc(N(CCN3CCOCC3)C(=O)Cn3c(=O)oc4ccccc43)nc12	i
Cc1ccc(Cl)cc1NC(=O)C(=O)NCCc1ccc2c(c1)CCCN2C	i
Cc1cc(C)c(NC(=O)COC(=O)c2cc(C)[nH]n2)c(C)c1	i
CC1=C([N+](=O)[O-])C(c2ccccc2F)N(C)C(=O)N1C (centres undefined)	i
CCOC(=O)CCC(=O)N1CC2(COC(C)(C)OC2)C1	i
O=C(NC1CCN(C(=O)c2cn(-c3ccccc3)nn2)CC1)c1cccc(Cl)c1	i
CN(C)S(=O)(=O)N1CCN(Cc2nc3ccccc3n2Cc2ccccc2)CC1	i
CCCOc1ccc(S(=O)(=O)Nc2ccc3c(c2)CCCN3S(=O)(=O)CC)cc1	i
O=C(NCc1ccc(C(=O)c2cccs2)s1)c1ccc2c(c1)OCO2	i
COc1ccc(-c2nc(C)c(CCNC(=O)C3CCCCC3)s2)cc1OC	i
COc1cc2c(cc1Nc1nc(Nc3ccsc3C(N)=O)c3cc[nH]c3n1)N(C(=O)CN(C)C)CCC2(C)C	i

(listing goes on)
SMILES	GIRK2 act
COCCNC(=O)CSc1nnc(NC(=O)c2cn(C)nc2OC)s1	i
CCCN1CCC(c2ccc(Nc3nc(Nc4cc(F)ccc4C(N)=O)c4cc[nH]c4n3)c(OC)c2)CC1	i
COCCc1nnc(NC(=O)CSc2ccc(Cl)cc2)o1	i
COc1ccc(NC(=O)CSc2nccn(-c3ccc(C)c(C)c3)c2=O)cc1OC	i
Cc1nn(C2CCS(=O)(=O)C2)c(C)c1N1CCN(S(=O)(=O)c2cccnc2)CC1 (centres undefined)	i
COc1ccc(CCC(=O)NCC#CCN(C(C)C)C(C)C)cc1	i
O=C(NCCc1cccs1)c1cnn2c1OCCC2	i
NC(Cc1cc(I)c(Oc2ccc(O)c(I)c2)c(I)c1)C(=O)O (centres undefined)	i
CCCCn1c(N2CCCC(C)C2)nc2c1c(=O)[nH]c(=O)n2C (centres undefined)	i
CCOCCCNc1nc2c(c(=O)[nH]c(=O)n2C)n1Cc1ccccc1	i
Cc1ccc(NS(=O)(=O)c2cccc(C)c2)cc1	i
O=C(CNCc1ccco1)Nc1ncc(Cc2cc(C(F)(F)F)ccc2Cl)s1	i
COc1ccc(-n2c(=O)c3ccccc3n(CC(=O)Nc3cc(C)[nH]n3)c2=O)cc1OC	i
COc1cccc(CNC(=O)C(=O)NCC2OCCCN2S(=O)(=O)c2ccc(OC)c(C)c2)c1 (centres undefined)	i
Cc1ccc(C)c(S(=O)(=O)NCc2ccc(C(=O)N3CCOCC3)cc2)c1	i

More compounds follow.
SMILES	GIRK2 act
O=C(NCCn1nc(C2CC2)n(-c2ccccc2)c1=O)c1ccc(-n2cccc2)cc1	i
O=C(c1cccc(C(F)(F)F)c1)N1CC(c2nc(-c3ccccn3)no2)C1	i
Cc1nnsc1C(=O)N1CCN(C(=O)C2CC2c2ccc3c(c2)OCO3)CC1 (centres undefined)	i
O=C(NCC1CCN(C(=O)c2cccnc2)CC1)c1ccco1	i
CC(C)NC(=O)Nc1nc2c(s1)CN(S(=O)(=O)c1ccc(C(F)(F)F)cc1)CC2	i
NC(=O)c1nnn(-c2ccc(NC(=O)c3ccccc3Br)cc2)n1	i
CC12CCC(C(=O)Nc3ccc4c(c3)OCO4)(CC1=O)C2(C)C (centres undefined)	i
COc1ccccc1NC(=O)Nc1ccc(N2CCCC2=O)c(C)c1	i
Cn1c(=O)n(Cc2ccc(F)cc2)c(=O)c2c1nc1n2CCCN1Cc1ccccc1	i
CCOc1ccc(C(=O)Nc2ccc3c(c2)CCC(=O)N3)cc1OCC	i
O=C(c1nnn(-c2ccc(Cl)cc2)n1)N1CCN(C(=O)C2CC2)CC1	i
CC(C)NC(=O)c1nsc(C(=O)N2CCN(c3ncccn3)CC2)c1N	i
CC(C)(Oc1ccc(Cl)cc1)C(=O)N1CCC(CSc2ccccn2)CC1	i
O=S(=O)(Nc1ccc2nncn2n1)c1ccc(Br)s1	i
O=C(c1cc2ccccc2[nH]1)N1CCN(C2CCCCC2)CC1	i

(list continues)
SMILES	GIRK2 act
O=C(NCC1(c2cccs2)CCCCC1)C(=O)Nc1ccc(F)c(Cl)c1	i
COc1ccccc1CC(=O)Nc1cc(OCc2ccc3c(c2)OCO3)ncn1	i
COc1ccc(C(=O)N2CCN(c3oc(-c4cccs4)nc3C#N)CC2)cc1OC	i
O=C(Cn1nc(-c2ccccc2)ccc1=O)NC1CCCC1	i
COCC(=O)N1CCc2sccc2C1C(=O)OC (centres undefined)	i
CCCCCCCCCCCCCCC(=O)OC[C@H](COP(=O)(O)OCC[N+](C)(C)C)OC(=O)CCCCCCCC(=O)[O-]	i
Cc1ccc(-c2csc(NC(=O)CN3C(=O)c4ccccc4C3=O)n2)c(C)c1	i
Cn1c(=O)c2c(nc(N3CCN(c4ccccc4)CC3)n2CC(=O)c2ccccc2)n(C)c1=O	i
COc1ccc(/C=C2\Oc3c(ccc4c3CN(Cc3ccncc3)CO4)C2=O)cc1	i
COc1ccc2nc(-n3nc(C)cc3NC(C)=O)sc2c1	i
O=c1c2nnn(Cc3ccc(F)cc3)c2ncn1Cc1nc(-c2ccc(C(F)(F)F)cc2)no1	i
O=C(CSc1ncccn1)N1CCCC(c2nnc(C(F)(F)F)o2)C1 (centres undefined)	i
CCc1ccc(C(=O)c2cn(CC(=O)Nc3ccc(Cl)cc3)c3ccccc3c2=O)cc1	i
O=C(Cc1c[nH]c2ccccc12)NCCn1ncccc1=O	i
Cc1cc(C)n(-c2cc(NC(=O)c3ccccc3Cl)ncn2)n1	i

New compounds follow.
SMILES	GIRK2 act
O=S(=O)(NCC1(c2ccccc2)CCOCC1)c1ccc(Cl)s1	i
O=C(NCCC1=CCCCC1)C1CCN(c2nc3ccsc3c(=O)n2Cc2ccc(F)cc2)CC1	i
Cc1ccc(C)c(S(=O)(=O)NC(CC(C)C)C(=O)O)c1 (centres undefined)	i
COc1ccc(CNC(=O)Cc2nnc(-c3ccsc3)o2)c(OC)c1	i
COc1cc(/C=C2/SC(=O)N(c3ccccc3OC)C2=O)ccc1O	i
Cc1cc(=O)n2c(-c3cccc(NC(=O)COc4ccc5ccccc5c4)c3)csc2n1	i
O=C(NCC(=O)N1CCC(COCc2ccc(Cl)cc2)CC1)c1ccccc1	i
O=C(Nc1cccc(-c2cnc3n2CCC3)c1)Nc1ccc2c(c1)OCO2	i
COC(=O)N1CCc2ccc(F)cc2C1C(=O)NCc1ccc2c(c1)OCO2 (centres undefined)	i
COc1cccc(CNC(=O)Cn2cccc(-c3nc(-c4ccc(Br)cc4)no3)c2=O)c1	i
CCOc1ccc(C2C(=C(O)c3ccc(OC)c(C)c3)C(=O)C(=O)N2c2cc(C)on2)cc1 (centres undefined)	i
Cc1ccc(N(C)S(=O)(=O)c2ccsc2C(=O)Nc2ccc(Cl)cc2)cc1	i
CN(C)c1ccc(C(=S)N2CCN(S(=O)(=O)c3ccc(F)cc3)CC2)cc1	i
CCOCCn1c(=O)c2c(nc3n(C(C)c4ccccc4)c(C)c(C)n23)n(C)c1=O (centres undefined)	i
Cc1onc(-c2ccccc2Cl)c1C(=O)N1CCN(Cc2nnnn2-c2ccc(F)cc2)CC1	i

(further entries)
SMILES	GIRK2 act
COc1ccc(NC(=O)c2ccc(N3CCCS3(=O)=O)cc2)c(OC)c1	i
CN(C)CCN(C(=O)CCCS(=O)(=O)c1ccccc1)c1nc2c(F)cc(F)cc2s1	i
CCOc1ccccc1NS(=O)(=O)c1c(C(=O)OC)sc2ccccc12	i
C#CCCNS(=O)(=O)Cc1cccc(F)c1	i
O=c1[nH]c2nc(N3CCSCC3)ncc2c(=O)n1CCc1cccs1	i
COc1cc(C)c(S(=O)(=O)NCCCN2CCOCC2)cc1C	i
CSC(=N)N	i
Cc1nc2ccc(Cl)cn2c(=O)c1NC(=O)Nc1cccc(Cl)c1C	i
O=C(C1COc2ccccc2O1)N1CC(c2nc(-c3cccc(Cl)c3)no2)C1 (centres undefined)	i
CC(Nc1c([N+](=O)[O-])c(=O)n(C)c2ccccc12)c1ccccc1 (centres undefined)	i
Clc1cccc(-c2noc(-c3cc(-c4cccs4)[nH]n3)n2)c1	i
CCCCCn1c(=S)[nH]c2cc(C(=O)NCc3ccccc3)ccc2c1=O	i
